# TRPV1 PAM: human TRPV1 potentiation; Q8NER1; TRPV1-expressing cells, Fluo-8 calcium influx, capsaicin EC20 potentiation; host cell line not named in the record; control for the full effect not named in the record; potentiation, % at 8.33 µM; hit rate 0.02% among 320,000; active means potentiation above 80%; inconclusive means 30% to 80%; inactive means below 30%; also: 0% is about no effect
#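 Fluo-8 calcium influx in TRPV1-expressing cells, kinetic read (ex 480/em 520 nm). Compound added and read 3 min for agonist activity, followed by capsaicin at EC20 final and 2 min further read for enhancement.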
# D2 agonist: activates the human D2 dopamine receptor. P14416. DiscoveRx PathHunter D2 beta-arrestin, luminescence, 90 min; 100% = 57 uM dopamine signal. activation, % (test concentration not listed). hit rate 0.084% among 360,000; in the data active = activation above about 40%; inconclusive = about 15% to 40%; inactive = below about 15%; also: compound concentration not given in the record; the text of the record calls up to 30% inactive
#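 DiscoveRx PathHunter D2 beta-arrestin cells (2,100/well) attached overnight, then compound-stimulated 90 min at 37 C in HBSS/10 mM HEPES/0.1% Tween-20 buffer; beta-galactosidase complementation read by luminescence after 1 h at ambient temperature. Dopamine 57 uM final (EC100) as control.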
# D2 potentiator: positive allosteric modulators of human D2 dopamine receptor. P14416. DiscoveRx D2 beta-arrestin cells, luminescence, 90 min; 100% = 57 uM dopamine signal. potentiation, % (test concentration not listed). hit rate 0.23% among 360,000. AID 624464; active = potentiation of 50% or more; inconclusive = 30% to 50%; inactive = 30% or less;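 also: compound concentration not given in the record; tested on top of an EC20 dose of dopamine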
#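 PathHunter D2 cells, attached overnight at 37 deg C, received compound in DMSO plus dopamine at EC20 (50 nM final) for 90 min at 37 deg C. Beta-arrestin recruitment was read as luminescence after 1 h with detection reagent at ambient temperature.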
# Sfp inh: blocks B. subtilis Sfp PPTase activity; Biochemical Sfp PPTase activity, qHTS; Q9F4F7; Potency, µM, for the others: max response, negative = inhibition, most hits filed as inhibitors; hit rate 3.5% among 310,000; active = well fitted inhibition curve with a large enough effect; inconclusive = small, poorly fitted or top-dose-only effect, or another doubt; inactive = no such curve, though single readings can be large or run the other way;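 also: the enzyme is Sfp with the accession as filed and its product quenches rhodamine fluorescence; potency is read from the fitted curve at half-maximal effect; 0% = enzyme reaction without inhibitor and -100% = no enzyme wells; top concentration of the series not given in the record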
#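 Reaction rates are the 30-min fluorescence difference (ex 525, em 598 nm) in wells containing 15 nM Sfp, 5 uM rhodamine-CoA and 12.5 uM BHQ-2-YbbR at pH 7.6 with 10 mM MgCl2.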
# Six1-Eya2 blk: blocks human Six1 binding to Eya2. hit rate 0.56% among 360,000. AID 651725. AlphaScreen GST-Six1/His-Eya2 binding, biochemical; hits give low values; control for the full effect not named in the record. Q15475+O00167. activity change, % (no concentration beside the values); in the data active = activity change below about -65%; inconclusive = about -30% to -65%; inactive = above about -30%; also: % is scaled to controls: 0 for no effect and ±100 for the full control effect; compound concentration not given in the record
# Target sequence (O00167 whole entry, looked up): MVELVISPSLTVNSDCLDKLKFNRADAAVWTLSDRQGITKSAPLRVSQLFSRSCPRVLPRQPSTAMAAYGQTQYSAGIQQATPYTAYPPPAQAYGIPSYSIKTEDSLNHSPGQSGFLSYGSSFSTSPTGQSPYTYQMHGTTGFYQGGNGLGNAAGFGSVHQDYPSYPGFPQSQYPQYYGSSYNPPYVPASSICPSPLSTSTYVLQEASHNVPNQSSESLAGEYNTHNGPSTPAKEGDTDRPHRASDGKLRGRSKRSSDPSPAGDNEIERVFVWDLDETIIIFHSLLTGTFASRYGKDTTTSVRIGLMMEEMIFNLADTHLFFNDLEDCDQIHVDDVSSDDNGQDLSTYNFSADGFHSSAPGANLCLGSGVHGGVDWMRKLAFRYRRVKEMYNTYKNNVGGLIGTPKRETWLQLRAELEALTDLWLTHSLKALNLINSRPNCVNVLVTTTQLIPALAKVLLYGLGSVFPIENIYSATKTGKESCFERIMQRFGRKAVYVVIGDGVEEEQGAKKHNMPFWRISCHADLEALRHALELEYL
# Target sequence (Q15475 whole entry, looked up): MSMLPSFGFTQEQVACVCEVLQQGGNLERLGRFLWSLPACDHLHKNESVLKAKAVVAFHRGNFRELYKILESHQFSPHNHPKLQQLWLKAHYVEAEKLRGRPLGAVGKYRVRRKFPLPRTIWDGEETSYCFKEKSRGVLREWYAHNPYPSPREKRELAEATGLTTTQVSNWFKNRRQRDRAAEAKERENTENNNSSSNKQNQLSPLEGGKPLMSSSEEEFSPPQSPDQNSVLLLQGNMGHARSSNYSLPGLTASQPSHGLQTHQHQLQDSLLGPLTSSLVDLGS
#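 GST-Six1 + His-Eya2 (5X stock: 250/500 nM); Tris pH 8.0, 300 mM NaCl, 0.05% BSA, 0.02% Tween 20; GSH donor/Ni acceptor beads; 1 h 37 °C dark; AlphaScreen readout.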
# CtBP-E1A inh: inhibitors of CtBP/E1A interaction; AlphaScreen GST-E1A/His-CtBP binding, 1536-well; hits give low values; control for the full effect not named in the record; activity change, % (concentration not given with the values); hit rate 0.49% among 340,000; in the data active means activity change below about -65%; inconclusive means about -30% to -65%; inactive means above about -30%; also: % is scaled to controls: 0 for no effect and ±100 for the full control effect
#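 In 5 uL wells, 23 nL compound meets equimolar GST-E1A and His-CtBP (5X stock 125 nM each) for 2 h, 37 °C. Beads (5X, 50 ug/mL) then 1 h, 37 °C, dark.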
# PINK1 expr mod: changes PINK1 expression. PINK1 immunofluorescence, high-content cytometry, 24 h. Potency, µM (doses to about 76.6 µM), for inactives: top-dose activation (PINK1 increase), usual class: activators. hit rate 0.2% among 410,000; active = well fitted activation curve with a large enough effect; inconclusive = small, poorly fitted or top-dose-only effect; inactive = flat fitted curve, though single readings scatter; cell line not stated here;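 also: potency is read from the fitted curve at half-maximal effect; % of control where 0% means no effect; nearly all actives have a fitted effect of over 65% in size; a mitochondrial uncoupler was the plate control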
#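 Fluorescence from anti-PINK1 antibody, together with nuclear and cell stains, was scanned on a laser-scanning cytometer. Before staining, stable-line cells were incubated 24 hours with compounds at 5 concentrations; primary antibody 12 h at 10 degrees C.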
# Numbers without * were called inactive; ? = inconclusive; . = not tested or not shown; & = joins results of further samples; [ ] = remark or other dose. Only part of the results is shown; the hit share may differ from the screen's.
# Order of values – TRPV1 PAM, D2 agonist, D2 potentiator, Sfp inh, Six1-Eya2 blk, CtBP-E1A inh, PINK1 expr mod
- Cc1cccc(CN2CCCC(C(=O)c3ccc(C(F)(F)F)cc3)C2)n1 (configuration not stated)
→ 18, -2.5, -9, 18%, 5, 2, 0.5%
- CCN1CCC(N(C)C2CCCCC2)CC1
→ 4, 1.4, 0, 17%, 1, 1, -1.4%
- CC1=CC(=O)C2=C(C)C[C@H](O)[C@@H]3[C@H](OC(=O)[C@H]3C)[C@@H]12
→ 1, -7.4, -9, ., 8, 2, -0.2%
- COc1cccc(N2CCN(Cc3cccc(Cl)c3)CC2)c1
→ 5, -2.4, -19, -5%, -15, -11, 2.2%[38.3 µM]
- Cn1cnc([N+](=O)[O-])c1Sc1ccc([N+](=O)[O-])cc1
→ 5, -8.5, -6, 56µM*, -3, 5, 0.8%
- O=C(c1ccccc1)C1CCCN(Cc2nc(-c3cnccn3)no2)C1 (configuration not stated)
→ 2, -0.7, 2, 17%, 1, 15, 0.4%
- C=CCOC(=O)COc1cc(C)cc2oc(=O)c3c(c12)CCC3
→ 0, -2.1, -12, 11%, 13, 10, 7.2%
- CC1=CC(=Cc2sc3ccccc3[n+]2C)C=C(C)O1
→ 10, -6.5, -5, -13%, -14, -9, ?
- Cc1ccc(-n2c(O)c(/C=C/C=Nc3ccccc3)c(=O)[nH]c2=O)cc1
→ 14, -6.9, -20, 3%, 4, -2, 2.0%
- Fc1ccc2c(c1)nnn2C1CCN(Cc2ccccc2)CC1
→ -19, -3.3, -37, -15%, -2, 0, -1.7%
- N=C1C(c2ccccc2)=C(O)CN1Cc1ccco1
→ 7, -2.1, -18, 8%, 1, 12, ?
- Cc1ccc(S(=O)(=O)NN)c(C)c1N1CCCC1=O
→ 5, -0.5, -13, 56µM*, 7, -19, 0.6%
- CC(=O)OC1(Cc2ccccc2)CN2CCC1c1ccccc12 (configuration not stated)
→ -6, 0.6, -5, 3%, 3, 1, -2.2%
- CCN(CC)P(=O)(/C=C(\Cl)c1ccccc1)/C=C(\Cl)c1ccccc1
→ 13, -2.5, -9, 4%, 1, 5, 0.1%
- COc1cc(C)c(CNCCc2c[nH]c3ccccc23)cc1C
→ 3, -2.2, -20, -17%, ?, ., 24%
- O=[N+]([O-])c1cccc(C2N3CCCN23)c1 (configuration not stated)
→ 8, -2.2, -2, 23%, 5, ., 0.7%
- COC(=O)C1=C(c2ccc(F)cc2OCc2ccccc2)C[C@@H]2CC[C@H]1N2C(=O)NCCNC(C)=O
→ 0, -0.7, -6, ., -4, -2, -0.7%
- CCCc1nc2ccc(Br)cc2c(=O)n1-c1ccc([N+](=O)[O-])c(C(F)(F)F)c1
→ -5, -1.6, 5, 16%, -22, -21, 14µM*
- O=C(CN1CCCC1)Nc1ccc(Cl)cc1C(=O)c1ccccc1
→ -19, -1.7, -5, ?, -4, 7, 2.2%
- CC(C)OCC(O)CN1CC2C[C@@H](C1)Cn1c2cccc1=O (some centres not stated)
→ 14, 7.0, 4, 0%, 4, ., 0.6%
- CCOP(=S)(OCC)C(O)CCCCCn1c(=O)c(F)cn(C2CCCO2)c1=O (configuration not stated)
→ 24, -4.3, -2, 9%, 0, -2, 0.6%
- Cc1ccc(N2C(=O)NC(=O)/C(=C/c3cnn(-c4ccc(C)cc4)c3)C2=O)cc1
→ -24, -2.7, -3, -3%, 1, 7, 0.5%
- Clc1ccc(CSC(Cn2ccnc2)c2ccc(Cl)cc2Cl)cc1 (configuration not stated)
→ -3, ., ., -27%&-49%, -12, -5, -0.7%
- CC(C)(C)N1C(=O)NC(=O)/C(=C\c2ccc3c(c2)CCN3CCCCl)C1=O
→ 2, -3.4, 0, ?, -6, -5, 0.1%
- Cc1cc(C)c(Cn2c(C(=O)O)c(C=O)c3ccccc32)c(C)c1
→ 1, -4.1, -3, 10%, -3, -6, 3.9%
- O=[N+]([O-])c1ccc(N2CCOCC2)c2c1no[n+]2[O-]
→ ., 1.8, -12, ., -8, -26, 2.1%
- COc1cc(Br)c(CNCCc2ccc3c(c2)OCO3)cc1OC
→ ?, 0.9, -5, -5%, -4, -6, 0.7%
- Cc1ccccc1-n1c(O)c(C(c2ccncc2)c2c(O)n(-c3ccccc3C)c(=O)[nH]c2=O)c(=O)[nH]c1=O
→ -5&28, -3.7&-0.2, 3&-4, -22%, 5&0, 12&-10, 2.6%&1.4%
- CN1C[C@H]2CON(C)[C@H]2C[C@H]1c1cccc(Br)c1
→ ., -1.7, ., ., -3, 2, -0.2%
- COc1ccc2c3c1OC1C(=O)CC[C@@]4(O)[C@@H](C2)N(CC2CC2)CC[C@]314 (some centres not stated)
→ ., 2.4, -9, ., -2, 7, -0.2%

# Entries of single compounds from above. Screens in order: TRPV1 PAM | D2 agonist | D2 potentiator | Sfp inh | Six1-Eya2 blk | CtBP-E1A inh | PINK1 expr mod
# Shown for COc1ccc2c3c1OC1C(=O)CC[C@@]4(O)[C@@H](C2)N(CC2CC2)CC[C@]314 (some centres not stated) : . | 2.4 | -9 | . | -2 | 7 | -0.2%
# Shown for CC(C)OCC(O)CN1CC2C[C@@H](C1)Cn1c2cccc1=O (some centres not stated) : 14 | 7.0 | 4 | 0% | 4 | . | 0.6%
# Shown for CN1C[C@H]2CON(C)[C@H]2C[C@H]1c1cccc(Br)c1 : . | -1.7 | . | . | -3 | 2 | -0.2%
# Shown for CC(C)(C)N1C(=O)NC(=O)/C(=C\c2ccc3c(c2)CCN3CCCCl)C1=O : 2 | -3.4 | 0 | ? | -6 | -5 | 0.1%
# Shown for O=C(CN1CCCC1)Nc1ccc(Cl)cc1C(=O)c1ccccc1 : -19 | -1.7 | -5 | ? | -4 | 7 | 2.2%

# (cont.)
# Order of values – TRPV1 PAM, D2 agonist, D2 potentiator, Sfp inh, Six1-Eya2 blk, CtBP-E1A inh, PINK1 expr mod
- CCOc1cc2c(cc1OCC)-n1cccc1C(c1cccc(F)c1)NC2 (configuration not stated)
→ -6, -2.5, -8, -6%, -6, ?, 7.2%
- CCCCCCCSc1cc(OC)c(CCN(C)C)cc1OC
→ -8, -6.3, -53, 14µM*, ?, -5, -6.1%
- Cc1[nH]c2c(Cl)cccc2c1CCN
→ 9, 5.2, -32, 7%, -13, -5, -0.1%
- O=C(c1ccc(CNS(=O)(=O)c2ccccc2)cc1)N1CCC2(CC1)OCCO2
→ -7, 0.5, 21, -15%, 5, 7, -1.1%
- CCc1ccc(NP(=O)(Oc2ccccc2F)Oc2ccccc2F)cc1
→ ?, 1.8, 0, -4%, -2, -1, -0.9%
- CN(C)/C=C/C(=O)C(Cl)(Cl)Cl
→ -7, 2.6, -6, -12%, 6, 4, 0.9%
- COC(=O)C1=C(c2c(C)noc2C)C[C@@H]2CC[C@H]1N2C(=O)NC1CCCCC1
→ -24, -0.4, -4, ., -1, 8, -0.1%
- CCN1C(=O)C(=C2C=C(C)OC(C)=C2)C(=O)N(CC)C1=S
→ 9, -0.2, 0, 14%, 5, 5, 6.6%
- Fc1ccccc1CCNCc1cccc2ccccc12
→ -8, -3.8, -35, -31%, 17, 16, 7.5%
- CCN1CCN(Cc2cc(Br)ccc2O)CC1
→ 5, -0.1, -40, 2%, -1, 4, -2.3%
- CC(=NCc1ccco1)c1c(O)n(-c2ccccc2)c(=O)[nH]c1=O
→ ., -0.4, 0, ?, 0, 3, -0.8%
- CCC(=NCc1cccnc1)c1c(O)n(-c2ccccc2)c(=O)[nH]c1=O
→ 17, -0.9, -4, ?, 5, ., -1.0%
- C=CC[C@@H](C)CC(=O)C(CCCN=[N+]=[N-])SOOc1ccccc1 (some centres not stated)
→ 9, -2.1, 0, ., 15, 29, -0.3%
- Nc1c(C(=O)OCC2CCCO2)c2nc3ccccc3nc2n1Cc1cccs1 (configuration not stated)
→ 9, -5.1, -13, ?, 3, 11, -0.8%
- CC(=O)C1C2c3ccccc3OC1(C)N=c1s/c(=C/c3cnn(C)c3)c(=O)n12 (configuration not stated)
→ 1, -3.4, -7, 9%, -7, -3, -1.7%

# Results in D2 potentiator, for 2 of the compounds above:
mol | D2 potentiator
C=CC[C@@H](C)CC(=O)C(CCCN=[N+]=[N-])SOOc1ccccc1 (some centres not stated) | 0
Nc1c(C(=O)OCC2CCCO2)c2nc3ccccc3nc2n1Cc1cccs1 (configuration not stated) | -13

# The results go on.
canonical_smiles | TRPV1 PAM | D2 agonist | D2 potentiator | Sfp inh | Six1-Eya2 blk | CtBP-E1A inh | PINK1 expr mod
O=P1(c2ccccc2)Nc2ccccc2N1c1ccccc1 (configuration not stated) | . | 0.5 | -11 | . | -5 | -6 | -1.7%
COc1ccc(C(=O)CN2CCCCC2)cc1 | 6 | -2.7 | -20 | 11% | 0 | -10 | -1.7%
N=C1c2ccccc2CN1NC(=O)c1ccc(Br)cc1 | 29 | -6.8 | -36 | -6% | -1 | -11 | -1.7%
CC/C(=N\NC(N)=O)c1c(O)[nH]c(=O)[nH]c1=O | -1 | -7.1 | -4 | ? | 9 | -1 | 2.0%
Cc1ncc2n1-c1ccc(Cl)cc1C(c1ccccc1F)=NC2 | . | 3.4 | -11 | 21% | 2 | -3 | 1.4%
NC(=O)CN1CC(c2ccccc2)CC1=O (configuration not stated) | 23 | -1.1 | 6 | 9% | 1 | -2 | 0.0%
COC(=O)C1=C(c2ccc(F)cc2OCc2ccccc2)C[C@@H]2CC[C@H]1N2C(=O)NCc1ccc2[nH]ccc2c1 | 3 | -4.4 | -1 | . | -21 | . | -0.2%
Cc1nn(C2CCOC(C)(C)C2)c2c1C(c1ccc(OC(C)C)cc1)SCC(=O)N2 (configuration not stated) | -9 | -4.2 | -16 | -25% | -5 | 0 | ?
O=C(NC(=O)c1c(F)cccc1F)Nc1cc(Cl)c(F)c(Cl)c1F | -8 | -2.6 | -41 | 9% | -1 | . | -0.3%
CCNC(=O)N1Cc2ccccc2-n2nncc2C1 | . | -8.8 | 0 | . | 5 | -9 | 0.0%
Cc1cccc(CCNCc2cc3cccc(C)c3[nH]c2=O)c1 | 6 | -0.5 | -8 | -7% | -3 | -4 | 0.9%
C[C@]12CC[C@H](O)C[C@H]1CC[C@@H]1[C@@H]2CC[C@]2(C)[C@@H](C3=CC(=O)OC3)CC[C@]12O | 0 | 6.1 | -4 | . | 1 | 4 | -0.4%
Cc1ccc(S(=O)(=O)Nc2cc(C(=O)N3CCC4(CC3)OCCO4)ccc2N2CCCCC2)cc1 | -23 | -3.5 | -13 | -23% | -10 | -4 | -0.9%
Cc1ccc(C)c(OCC(=O)N2CCN(Cc3ccc4c(c3)OCO4)CC2)c1 | -1 | -1.8 | -6 | -16% | -8 | 2 | 1.6%
